Screening data as filed in PubChem BioAssay.
Biofilm kill mix – clotrimazole potentiators killing C. albicans biofilm, primary screen, 4-compound mixtures; C. albicans biofilm persisters + clotrimazole, fluorescence viability; primary screen in compound mixtures of four per well; inhibition, % at 7.6 µM; actives 0.02% (n = 120,000);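 active = inhibition above 30.3% in the primary screen of four-compound pools, then above 30% when the compound was retested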;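 note: compounds exposed to preformed 24 h biofilms for 48 h; the number belongs to the whole pool; some results filed as inactive read as strong as hits; inactives centre near 12; 0% = biofilm with clotrimazole alone and 100% = kill control; retested singly at about 60 µM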
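System: C. albicans CAF4-2 wild-type biofilms; Medium: RPMI/MOPS medium, pH 7.0; Reagent: Clotrimazole, 50 µg/mL; Times: biofilm formation 24 h, compound exposure 48 h, 37 °C; Detection: 2-h Alamar Blue fluorescence, 535/590 nm excitation/emission; Evaluation: percent inhibition of biofilm viability.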
* marks the source's active call; other numbers are inactive results. The list is partial. The share of hits here may be higher or lower than overall.

SMILES,Biofilm kill mix
O=C(CSc1ccccn1)Nc1ccc(NC(=O)CSc2ccccn2)cc1,3
COc1cc(C(=O)NC2CCN(Cc3nnnn3Cc3ccc(F)cc3)CC2)cc(OC)c1OC,2
Cc1ccc(Sc2cnc(N)nc2C)cc1,13
C=CCNC(=S)/N=c1/scc(C)n1C,17
Cc1c(S(=O)(=O)c2ccccn2)c(N)n(Cc2cccc(Cl)c2)c1C,11
O=C(O)C(Cc1c[nH]c2ccccc12)NS(=O)(=O)c1ccc2ccccc2c1 (centres undefined),8
C=CCNC(=O)/C(C#N)=C/c1c(C)nn(-c2ccc(Cl)cc2)c1Cl,16
O=C(O)C(Cc1c[nH]c2ccccc12)NS(=O)(=O)c1cccc2nsnc12 (centres undefined),7
O=C(O)c1ccc(N/N=C/c2ccc(-c3ccccc3)cc2)cc1,20
COc1cccc2cc(C(=O)c3ccccc3)oc12,1
Cc1ccc(N(CC(=O)NC(C)(C)C)C(=O)CS(=O)CC(=O)Nc2ccc3c(c2)OCO3)cc1 (centres undefined),2
Cc1ccc(S(=O)(=O)Nc2c(C)n(C)n(-c3ccccc3)c2=O)cc1C(=O)OC(C)C(=O)N(C)c1ccccc1 (centres undefined),6
COc1ccc(C(=O)N2CC(=O)Nc3ccccc32)cc1S(=O)(=O)N1CCOCC1,1
O=S(=O)(NCCc1ccccn1)c1ccc(-c2ccccn2)s1,7
CC(C)CCN1CCN(Cc2nc(-c3ccccc3)cs2)CC1CCO (centres undefined),8
Cc1cnc(C(=O)OCC(=O)NCCCc2ccccc2)cn1,4
COc1ccc(-n2c(C)cc(C(=O)CN3CCCCC3)c2C)cc1,10
CCCC(=O)Nc1ccc2c(c1)nc(CCN1CCCCC1)n2C,6
COc1ccc(C(=O)Nc2nc3nccc(-c4ccccc4)n3n2)cc1,23
COc1ccc(/C=C/C(=O)NCCn2c(C)cc3ccccc32)cc1OC,4
CN1CCN(S(=O)(=O)c2cnccc2N2CCN(c3cccc(Cl)c3)CC2)CC1,13
CC1CCc2c(sc(NC(=O)Cn3nc(C(=O)O)c4ccccc4c3=O)c2C#N)C1 (centres undefined),10
CC(C)(CO)NC(=O)CC1C(=O)NCCN1Cc1ccc(-c2ccccc2)cc1 (centres undefined),9
Cc1cc(/C=N/NC(N)=O)c(C)n1C1CCCCC1,10
COc1ccccc1NC(=S)N1CCc2cc(OC)c(OC)cc2C1,0
CC(C)(C)NC(=O)C1Cc2ccccc2CN1S(=O)(=O)c1ccc(F)cc1 (centres undefined),15
CC(C)CNc1nc(N)c([N+](=O)[O-])c(NCC2CCCO2)n1 (centres undefined),4
CCN(CC)C(=O)COc1ccc(C=O)cc1OC,14
Cc1c(Cl)cccc1NC(=S)N(CCN(C)C)C(C)c1ccccn1 (centres undefined),12
COc1ccc(C(=O)n2cc(C(=O)c3cc(C)ccc3O)cn2)cc1OC,7
COc1cc(CCc2ccc3c(c2)OCO3)oc(=O)c1,13
Cc1cc(C)n(C(=O)c2cc(F)c(F)cc2C)n1,16
COc1cc(/C=C2\SC(=O)N(CCNC(=O)c3cnc(C)cn3)C2=O)cc(OC)c1OC,14
O=C(Cc1noc2ccccc12)NNC(=S)Nc1ccccc1,12
CN(C)c1ccc(CNc2nc(-c3ccccc3)nn2S(C)(=O)=O)cc1,20
Oc1ccc(N=Nc2cccc(C(F)(F)F)c2)cc1C=Nc1ccc(N2CCOCC2)cc1,11
CCOc1cc(/C=C2/NC(=O)N(CC(=O)OC)C2=O)ccc1O,10
Cc1ccsc1/C=N/NC(=S)NCCc1ccccc1,10
O=C(Nc1nc2ccccc2s1)c1ccc2c(c1)OCO2,4
COc1ccc2c(c1)CCc1cnc(N)nc1-2,14
Cc1ccc(-c2cc(C(=O)OCC(=O)N(C)C3CCS(=O)(=O)C3)c3ccccc3n2)c(C)c1 (centres undefined),9
COc1ccccc1C(=O)N=C1NC(=O)CC2C(=O)NCCN12 (centres undefined),22
Cc1ccc(NC2=NCC(=O)N2C2CCCC2)c(C)c1,10
COc1cc(C(=O)NC(=S)Nc2nccs2)cc(OC)c1OC,6
Cn1cc(CN2CCN(Cc3ccccc3)C(CCO)C2)c(-c2ccccc2)n1 (centres undefined),8
O=C(/C=C/c1cccc([N+](=O)[O-])c1)Nc1cccc(NC(=O)c2cccs2)c1,18
N=C1SC(c2ccccc2)C(=O)N1c1ncc(Cc2ccccc2)s1 (centres undefined),17
Cc1ccccc1Cn1ccc(NC(=O)c2nn(C)cc2[N+](=O)[O-])n1,12
CN(C)c1ccc(/C=N/N2C(=O)c3ccccc3C2=O)cc1,-2
N#Cc1c(Cl)nsc1NC(=O)c1ccccc1,32
Cc1ccnc(SCc2cc(=O)c(OC(=O)c3ccco3)co2)n1,10
COc1ccc(F)cc1C(=O)C1CCCN(Cc2ccc(Sc3nncn3C)o2)C1 (centres undefined),-7
O=C(Nc1ccccc1)Nc1nc2ccccc2s1,4
COc1ccc(N(CCCN2C(=O)c3cccc4cccc(c34)C2=O)C(=O)c2ccncc2)cc1,23
COc1cc(N)c(Cc2nccc3cc(OC)c(OC)cc23)cc1OC,25
CC(=O)c1cccc(NC(=O)C(C)OC(=O)CNC(=O)c2ccc(C)s2)c1 (centres undefined),5
Cc1ccccc1CN(c1ccc(C(=O)NCC2CCCO2)cc1)S(C)(=O)=O (centres undefined),9
Cc1ccc(OCC(=O)N2CCOCC2)c([N+](=O)[O-])n1,13
O=C(O)CCC(=O)NNC(=O)c1ccc(Br)cc1,16
CCOc1ccc(C(=O)/C=C/Nc2ccc(S(=O)(=O)Nc3onc(C)c3C)cc2)cc1,0

(list continues)
SMILES,Biofilm kill mix
N#CCSc1nnc(CNc2ccc(F)cc2)o1,13
O=C(NCc1ccccc1)Oc1cccc(Cl)c1,10
COC(=O)c1cc(OC)c(OC)cc1NC(=O)c1cc(OC)cc(OC)c1,6
Cn1c(CSCc2ccccc2)nnc1SCC(=O)Nc1ccc(C(=O)O)cc1,11
O=C(COc1ccc(/C=N/NC(=O)c2ccc(O)cc2)cc1)Nc1ccc([N+](=O)[O-])cc1,11
Oc1ccccc1Nc1ccccn1,17
NS(=O)(=O)c1cccc(NC(=O)COC(=O)c2cc(-c3ccc(Cl)cc3)nc3ccccc23)c1,12
CCC(=O)NC(=S)Nc1cccc(Cl)c1N1CCCC1,7
Cc1cccn2c(=O)c(C=O)c(N3CC(C)OC(C)C3)nc12 (centres undefined),25
CC(=O)NC(=S)Nc1ccc(NC(=S)NC(=O)c2ccc([N+](=O)[O-])cc2)cc1,24
NC(=O)CC[C@H](NC(=O)c1ccc(F)cc1)C(=O)OCC(=O)NCc1ccc(F)cc1,12
CCn1c(SCC(=O)c2ccccc2)nc2sc3c(c2c1=O)CCN(C)C3,19
CCSc1nnc(COc2ccccc2)n1CC,15
CC1(C)C2CCC1(C)C1(C2)NC(=O)c2ccccc2O1 (centres undefined),18
Cc1ccc2nc(SCC(=O)N(CC(C)C)c3c(N)n(Cc4ccccc4)c(=O)[nH]c3=O)[nH]c2c1,16
CC(C)c1ccc(/C=C(\c2nc3ccccc3[nH]2)S(=O)(=O)c2ccccc2)cc1,5
C=CCOC(=O)c1sc(NC(=O)c2ccc(OC)cc2)nc1C,-9
CCOC(=O)c1sc(NC(=O)CC)c(C#N)c1C,1
CNNC(=O)C(=O)NNS(=O)(=O)c1ccccc1,19
O=C(Cc1n[nH]c(=O)c2ccccc12)Nc1cccc(S(=O)(=O)N2CCCC2)c1,3
CC1Cc2ccccc2N1S(=O)(=O)c1cccc(C(=O)N2CC(=O)Nc3ccccc32)c1 (centres undefined),21
COc1cc(NC(=O)C2CCCO2)c(OC)cc1Cl (centres undefined),-9
CCc1nc(SCc2ccc([N+](=O)[O-])cc2)n[nH]1,5
C=CCOc1ccc2c(c1)c(=O)cc(C(=O)O)n2CC,18

2 records picked at random from those above:
SMILES,Biofilm kill mix
Cc1ccc(OCC(=O)N2CCOCC2)c([N+](=O)[O-])n1,13
Oc1ccccc1Nc1ccccn1,17

Other structures follow:
SMILES,Biofilm kill mix
N/C(=N\OC(=O)COc1ccc(Cl)cc1)c1cccnc1,-4
COc1ccccc1NS(=O)(=O)c1cccc(NC(=O)Nc2ccccc2)c1,6
O=C(CSCc1ccco1)NC1CCCC1,0
CC(C)CNC(=O)COC(=O)c1ccccc1SCC(=O)NCC(C)C,24
CS(=O)(=O)N1N=C(c2cccs2)CC1c1ccco1 (centres undefined),25
C/C(=C\c1ccccc1)C(=O)NCCCn1ccnc1,9
O=C(Cn1cc([N+](=O)[O-])cn1)N1N=C(C(F)F)CC1(O)C(F)F (centres undefined),-3
CC(C)(C)c1cccc(P(=O)(c2ccccc2)c2ccccc2)c1O,16
Cc1ccc(NC(=S)N(CCN(C)C)Cc2cccs2)c(C)c1,13
COC(=O)[C@@H]1[C@@H](C)N(Cc2ccccc2)C(=O)N[C@H]1c1cccc(C(F)(F)F)c1,6
CCCc1cc(N2CCC(C(N)=O)CC2)nc(-c2ccccc2)n1,-13
O=C(O)CCSc1nnc(CNc2ccc(Cl)cc2)n1Cc1ccccc1,19

Part of the list above, with each value named:
CN(C)c1ccc(/C=N/N2C(=O)c3ccccc3C2=O)cc1
  Biofilm kill mix: -2

N#Cc1c(Cl)nsc1NC(=O)c1ccccc1
  Biofilm kill mix: 32

A few values from above.
O=C(Cn1cc([N+](=O)[O-])cn1)N1N=C(C(F)F)CC1(O)C(F)F (centres undefined) in Biofilm kill mix reads -3
O=C(O)CCSc1nnc(CNc2ccc(Cl)cc2)n1Cc1ccccc1 in Biofilm kill mix reads 19
O=C(CSCc1ccco1)NC1CCCC1 in Biofilm kill mix reads 0
CC(C)(C)c1cccc(P(=O)(c2ccccc2)c2ccccc2)c1O in Biofilm kill mix reads 16
COC(=O)[C@@H]1[C@@H](C)N(Cc2ccccc2)C(=O)N[C@H]1c1cccc(C(F)(F)F)c1 in Biofilm kill mix reads 6
C/C(=C\c1ccccc1)C(=O)NCCCn1ccnc1 in Biofilm kill mix reads 9
CS(=O)(=O)N1N=C(c2cccs2)CC1c1ccco1 (centres undefined) in Biofilm kill mix reads 25

(next part)
SMILES,Biofilm kill mix
CCN1CCN(Cc2c(O)ccc3c2O/C(=C\c2ccccc2)C3=O)CC1,18
Cc1ccc(S(=O)(=O)/N=C2/NC(=O)/C(=C/c3ccccc3)S2)cc1,20
COc1ccc2c(C)cc(SCC(=O)NCCN3C(=O)CSC3=O)nc2c1,15
CCOC(=O)C1C(c2ccc(Cl)cc2)NC(=S)NC1(O)C(F)(F)F (centres undefined),14
NC(=O)COC(=O)CC(c1ccccc1)c1ccccc1,7
CN(C)c1ccc(S(=O)(=O)NCC(=O)OCC(=O)Nc2cccc(Cl)c2)cc1[N+](=O)[O-],18
COc1cc2c(cc1NC(=O)c1cccc(F)c1)CCCC2,18
CCN(CC)c1ccc(/C=N/OCC(=O)Nc2cccc(C)c2)cc1,18
C=CCn1nc2n(c1=O)-c1ccccc1SC2,13
COc1cccc2c(Cl)c(CC=C(Cl)Cl)c(C)nc12,-6
O=C1CSCN1c1ccc(Cl)c(Cl)c1,7
COc1ccc2c(CCNC(N)=S)c[nH]c2c1,20
CCCN(c1ccc(C(=O)OC)cc1)S(=O)(=O)c1ccccc1,18
CCOC(=O)c1nnn(CC(=O)N2N=C(c3ccccc3)CC2c2ccccc2)c1C(=O)OCC (centres undefined),10
COc1ccc(C2C(C(=O)OC3CCCCC3)=C(C)Nc3nnnn32)c(OC)c1OC (centres undefined),5
C=CCNC(=O)CC(=O)N/N=C/c1cccc(C)c1,18
O=C(CC1S/C(=N/N=C/c2ccco2)NC1=O)Nc1cccc(Cl)c1Cl (centres undefined),3
COc1ccc(CCn2c(=O)[nH]c3cc(C(=O)N4CCN(c5ccccc5)CC4)ccc3c2=O)cc1OC,9
Cn1cc([N+](=O)[O-])c(C(=O)NNC(=O)c2ccc([N+](=O)[O-])cc2)n1,6
COc1ccc(-c2cnc(N)n2C)cc1,5
O=C(Nc1cccn2ncnc12)c1cccc(C(F)(F)F)c1,10
CCOC(=O)C(=NC1CCCCC1)NNc1cccc(C(F)(F)F)c1,3
COc1cccc(-n2nnnc2SCC(=O)Nc2nc3c(s2)CCCC3)c1,11
COc1cccc(OCCn2cccc2/C=C2/C(=N)N3OC(C)=CC3=NC2=O)c1,15
Cc1cc(OCCn2ccnc2)ccc1C(C)C,-3
Fc1ccccc1C1CCN(Cc2nc(COc3ccccc3)no2)C1 (centres undefined),3
CCc1ccc(/C=C2\Oc3c(ccc(O)c3CN3CCN(C)CC3)C2=O)cc1,-5
Cc1cc(C)nc(/N=C(\N)N2CCCCCC2)n1,13
CCC1=NN(C(=O)Cc2ccc([N+](=O)[O-])cc2)C(O)(C(C)(C)C)C1 (centres undefined),13
Cc1cc(C)n(C(=O)Cn2nc([N+](=O)[O-])cc2C)n1,24
CCCC(NC(=S)NCC1CCCO1)C12CC3CC(CC(C3)C1)C2 (centres undefined),23
OCCN1CCN(CC(O)COc2ccc(C34CC5CC(CC(C5)C3)C4)cc2)CC1 (centres undefined),7
CC(=O)CC(=O)Nc1ncc(C(F)(F)F)cc1Cl,13
